Screening data deposited in PubChem BioAssay by National Center for Advancing Translational Sciences (NCATS).
Methyltransferases = Primary Screen for Target Class Profiling of Small Molecule Inhibitors of Methyltransferases. purified enzyme, MTase-Glo SAH luminescence; active compounds read low. calls only at 40 µM. 3.9% of 25,000 active. AID 1745853, 2022; active = -50% or lower on at least one of six enzymes; inconclusive = the cases between; inactive = as a rule above -30% on all six;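 further: enzymes were COMT GAMT GNMT HNMT NNMT and PNMT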
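Each enzyme was assayed with SAM and its substrate. SAH formation detected by MTase-Glo luminescence; single-point 40 uM screen[…].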
Calls only; i = inactive; ? = inconclusive; + = active, no number; ! = not confirmed by another sample. On the % scale 0 is the no-effect control and ±100 the full control effect.

> CCNc1nc(Nc2cc(F)c(C(=O)N3CCOCC3)cc2OC)ncc1C(F)(F)F
  Methyltransferases: +

> CS(=O)(=O)c1ccc(-n2nc(C(F)(F)F)cc2-c2ccc(F)cc2)cc1
  Methyltransferases: i

> Cc1cccc(-c2[nH]c(Cc3cccc(C(N)=O)c3)nc2-c2ccc3nccnc3c2)n1
  Methyltransferases: ?

> COc1cccc(-c2cc(F)ccc2C2Cc3nc(N)nc(C)c3C(=O)N2)n1 (stereo unspecified)
  Methyltransferases: ?

> COc1cc(N2CCC(N3CCN(C)CC3)CC2)ccc1Nc1ncnc(Nc2ccccc2S(=O)(=O)C(C)C)n1
  Methyltransferases: i

> Cn1c2ccc(NC(=O)c3ccccc3)cc2c(=O)n2nc(C(=O)O)cc12
  Methyltransferases: i

> CCOc1ccc(S(=O)(=O)N2CCCCCC2)c2ccccc12
  Methyltransferases: i

> CNC1CN(c2ccc3c(=O)c(C(=O)O)cn(-c4nccs4)c3n2)CC1OC (stereo unspecified)
  Methyltransferases: ?

> C[C@H](Oc1cc(-n2cnc3ccc(CN4CCN(C)CC4)cc32)sc1C(N)=O)c1ccccc1C(F)(F)F
  Methyltransferases: ?

> COc1cc2c(cc1-c1c(C)noc1C)ncc1[nH]c(=O)n([C@H](C)c3ccccn3)c12
  Methyltransferases: +!

Quoted at random: seven compounds from above
> COc1cc(N2CCC(N3CCN(C)CC3)CC2)ccc1Nc1ncnc(Nc2ccccc2S(=O)(=O)C(C)C)n1
  Methyltransferases: i

> COc1cc2c(cc1-c1c(C)noc1C)ncc1[nH]c(=O)n([C@H](C)c3ccccn3)c12
  Methyltransferases: +!

> C[C@H](Oc1cc(-n2cnc3ccc(CN4CCN(C)CC4)cc32)sc1C(N)=O)c1ccccc1C(F)(F)F
  Methyltransferases: ?

> CCOc1ccc(S(=O)(=O)N2CCCCCC2)c2ccccc12
  Methyltransferases: i

> Cn1c2ccc(NC(=O)c3ccccc3)cc2c(=O)n2nc(C(=O)O)cc12
  Methyltransferases: i

> CS(=O)(=O)c1ccc(-n2nc(C(F)(F)F)cc2-c2ccc(F)cc2)cc1
  Methyltransferases: i

> CCNc1nc(Nc2cc(F)c(C(=O)N3CCOCC3)cc2OC)ncc1C(F)(F)F
  Methyltransferases: +

(further entries)
> CCN(CC)C(=O)Nc1ccc(OCC(O)CNC(C)(C)C)c(C(C)=O)c1 (stereo unspecified)
  Methyltransferases: i

> COc1cc2ncnc(Nc3ccc(F)c(Cl)c3)c2cc1NC(=O)/C=C/CN1CCCCC1
  Methyltransferases: +

> CC(C)(C)Nc1nc(Nc2ccc(C(N)=O)cc2)cc(N)c1C#N
  Methyltransferases: i

> CC(C)(C)c1cc(C(=O)O)c(NC(=O)Nc2ccc3[nH]ncc3c2)s1
  Methyltransferases: i

> O=C(c1ccc(F)c(F)c1Nc1ccc(I)cc1F)N1CC(O)([C@@H]2CCCCN2)C1
  Methyltransferases: i

> CC(C)CC(=O)Nc1n[nH]c2c1CN(C(=O)C1CCN(C)CC1)C2(C)C
  Methyltransferases: ?

> Cc1c(F)ccc(C(=O)Nc2cc([N+](=O)[O-])ccc2N2CCN(C)CC2)c1Cl
  Methyltransferases: ?

> O=C(c1cc(Cc2n[nH]c(=O)c3ccccc23)ccc1F)N1CCN(C(=O)C2CC2)CC1
  Methyltransferases: ?

> Cc1nc(NC(=O)N2CCC[C@H]2C(N)=O)sc1-c1ccnc(C(C)(C)C(F)(F)F)c1
  Methyltransferases: ?

> CC(C)(C)NCCCNC(=O)c1cccc(Br)c1
  Methyltransferases: i

Only part of the results is shown. The share of hits here may be higher or lower than overall.
